D2 potentiator = positive allosteric modulators of human D2 dopamine receptor; P14416; DiscoveRx D2 beta-arrestin cells, luminescence, 90 min; 100% = 57 uM dopamine signal; potentiation, % (test concentration not listed); 360,000 tested, 0.23% active; active = potentiation of 50% or more; inconclusive = 30% to 50%; inactive = 30% or less;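 note: compound concentration not given in the record; tested on top of an EC20 dose of dopamine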
Target sequence (P14416 whole entry, looked up): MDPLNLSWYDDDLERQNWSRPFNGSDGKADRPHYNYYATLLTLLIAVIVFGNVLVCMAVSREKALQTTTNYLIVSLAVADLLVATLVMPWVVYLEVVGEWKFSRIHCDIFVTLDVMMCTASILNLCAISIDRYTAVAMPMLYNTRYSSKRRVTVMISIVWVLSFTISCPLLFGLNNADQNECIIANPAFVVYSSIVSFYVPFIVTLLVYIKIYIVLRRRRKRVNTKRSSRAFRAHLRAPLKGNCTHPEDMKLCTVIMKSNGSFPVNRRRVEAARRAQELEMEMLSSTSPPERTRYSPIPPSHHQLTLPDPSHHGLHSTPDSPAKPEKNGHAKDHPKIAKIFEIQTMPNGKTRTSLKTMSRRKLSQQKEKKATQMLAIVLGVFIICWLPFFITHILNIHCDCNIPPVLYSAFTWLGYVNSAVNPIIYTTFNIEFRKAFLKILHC
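PathHunter beta-arrestin assay in DiscoveRx D2 cells. Compounds were added with an EC20 of dopamine (50 nM final) for 90 min at 37 deg C. Luminescence was read 1 h after detection reagent, with 57 uM dopamine as the EC100 control.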
CtBP-E1A inh = inhibitors of CtBP/E1A interaction. AlphaScreen GST-E1A/His-CtBP binding, 1536-well; active compounds read low; control for the full effect not named in the record. activity change, % (no concentration beside the values). 340,000 tested, 0.49% active; in the data active means activity change below about -65%; inconclusive means about -30% to -65%; inactive means above about -30%; note: % is set by controls: 0 for no effect and ±100 for the full control effect
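Homogeneous bead-based format: GST-tagged E1A captured on glutathione donor beads, His-tagged CtBP on nickel acceptor beads; compounds precede bead addition by 2 h at 37 °C.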
TRPV1 PAM = potentiators of human vanilloid receptor 1 (TRPV1). Q8NER1. TRPV1-expressing cells, Fluo-8 calcium influx, capsaicin EC20 potentiation; host cell line not named in the record; control for the full effect not named in the record. potentiation, % at 8.33 µM. 320,000 tested, 0.02% active. AID 540277; active means potentiation above 80%; inconclusive means 30% to 80%; inactive means below 30%; note: 0% is about no effect
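TRPV1-expressing cells were cultured overnight at 35.5C and loaded with Fluo-8 calcium dye for 40 to 90 min at room temperature. After a 10 s baseline, compound was added and calcium influx was read kinetically for 3 min (ex 480/em 520 nm).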
Six1-Eya2 blk = inhibitors of human Six1/Eya2 interaction | Q15475+O00167 | AlphaScreen GST-Six1/His-Eya2 binding, biochemical; active compounds read low; control for the full effect not named in the record | activity change, % (concentration not given with the values) | 360,000 tested, 0.56% active | AID 651725; in the data active = activity change below about -65%; inconclusive = about -30% to -65%; inactive = above about -30%; note: % is set by controls: 0 for no effect and ±100 for the full control effect
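AlphaScreen with GST-Six1 and His-Eya2 (5X mix: 250 nM and 500 nM), glutathione donor and nickel acceptor beads; buffer 50 mM Tris pH 8.0, 300 mM NaCl, 1 mM TCEP; 1 h at 37 C in the dark.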
PINK1 modulator = changes PINK1 expression. Potency, µM (highest dose often 76.6 µM), for inactives: top-dose activation (PINK1 increase), actives largely listed as activators. PINK1 immunofluorescence, high-content cytometry, 24 h. 410,000 tested, 0.2% active; active = well fitted activation curve with a large enough effect; inconclusive = small, poorly fitted or top-dose-only effect; inactive = flat fitted curve, though single readings scatter; cell line not stated here;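 note: potency is the fitted concentration of half-maximal effect; % of control where 0% means no effect; nearly all actives have a fitted effect of over 65% in size; a mitochondrial uncoupler was the plate control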
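Decision-based qHTS: stable cells, 24 h exposure to five compound concentrations, CCCP as control. Fixed cells stained for PINK1 plus nuclear, mitochondrial and cell markers, cytometer read.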
D2 ag = human D2 receptor agonism in beta-arrestin assay. DiscoveRx PathHunter D2 beta-arrestin, luminescence, 90 min; 100% = 57 uM dopamine signal. P14416. AID 624465. 360,000 tested, 0.084% active. activation, % (test concentration not listed); in the data active = activation above about 40%; inconclusive = about 15% to 40%; inactive = below about 15%; note: compound concentration not given in the record; the text of the record calls up to 30% inactive
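Agonist mode: compounds alone added to overnight-plated D2 PathHunter cells for 90 min at 37 C, with 57 uM final dopamine (EC100) defining full response. Beta-arrestin recruitment detected by chemiluminescent reagent, read after 1 h at ambient temperature.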
Sfp PPTase inh = blocks B. subtilis Sfp PPTase activity | Potency, µM, inactives show max response, negative = inhibition, usual class: inhibitors | Biochemical Sfp PPTase activity, qHTS | AID 1490 | Q9F4F7 | 310,000 tested, 3.5% active; active = well fitted inhibition curve with a large enough effect; inconclusive = small, poorly fitted or top-dose-only effect, or another doubt; inactive = no such curve, though single readings can be large or run the other way;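 note: the enzyme is Sfp with the accession as filed and its product quenches rhodamine fluorescence; potency is the fitted concentration of half-maximal effect; 0% = enzyme reaction without inhibitor and -100% = no enzyme wells; top concentration of the series not given in the record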
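Buffer: 50 mM Hepes-Na pH 7.6, 10 mM MgCl2, 0.01% Nonidet P-40, 0.01% BSA. Enzyme 15 nM, pre-exposed to compound 15 min; substrates then added and fluorescence change tracked over 30 min.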
* marks the source's active call; other numbers are inactive results; ? = inconclusive; / = not tested or not shown; & = joins results of further samples; [ ] = another dose, or the depositor's remark.

(1) O=C(O)c1c[nH]c(=S)n1-c1ccc(F)cc1
(2) NC(=O)C1=C[C@H](c2ccc(Br)cc2)C[C@H](OCc2ccc(CO)cc2)O1
(3) COC(=O)CCS(=O)(=O)c1ccc(Cl)c(Cl)c1
(4) COc1ccc(CN(C(=O)c2snc(C(N)=O)c2N)C(C)C(=O)NCc2ccc(F)cc2)cc1 (stereo unspecified)
(5) O=C(COC(=O)c1ccccc1Cl)Nc1ccc2[nH]c(=O)[nH]c2c1
(6) COc1ccc(NC(=O)Cc2nnc(SCC(=O)c3ccccc3)n2C)cc1
assay / compound	1	2	3	4	5	6
D2 potentiator	-7	-1	-7	-2	-4	1
CtBP-E1A inh	0	3	5	20	2	0
TRPV1 PAM	15	-14	-3	3	11	0
Six1-Eya2 blk	7	0	4	0	4	40
PINK1 modulator	3.0%	0.6%	?	1.7%	3.0%	0.7%
D2 ag	-2.7	-0.8	-4.8	4.3	1.9	-2.1
Sfp PPTase inh	11µM*	0%	-5%	7%	/	11%

(7) CC(=O)c1cc2c(cc1NC(=O)CN1Cc3ccccc3C1=O)OCO2
(8) O=C(NC(=S)Nc1cccc(S(=O)(=O)NC2=NCCC2)c1)c1cc(-c2ccco2)nc2ccccc12
(9) c1ccc(-c2cncnc2)cc1
(10) O=C(N1CCOCC1)N(Cc1ccco1)CC1CCCO1 (stereo unspecified)
(11) Cn1c(SCC(=O)NCc2ccc3c(c2)OCO3)ncc(C(=O)Nc2ccc(F)cc2)c1=O
(12) O=C(Nc1cc(S(=O)(=O)N2CCOCC2)ccc1N1CCCCC1)c1cc(-c2ccccn2)nc2ccccc12
assay / compound	7	8	9	10	11	12
D2 potentiator	-9	-6	-5	-7	-16	-3
CtBP-E1A inh	15	?	-1	11	4	-14
TRPV1 PAM	10	28	-17	5	5	5
Six1-Eya2 blk	18	?	9	3	1	-18
PINK1 modulator	0.8%	3.3%	-0.2%	-1.2%	5.1%	12%
D2 ag	2.8	0.4	-2.0	3.6	-3.7	-5.0
Sfp PPTase inh	3%	?	/	7%	/	13µM*

(13) NC(N)=N/N=C/c1ccc(Cl)cc1Cl
(14) CCc1nc2ccccc2nc1N1CCN(S(=O)(=O)c2ccc(Cl)cc2)CC1
(15) Cc1ncc([N+](=O)[O-])n1CCOC(=O)NC(Nc1ccc(F)cc1)C(Cl)(Cl)Cl (stereo unspecified)
(16) Clc1ccc(-n2nnnc2-c2cnc3ccccc3c2-c2ccccc2)cc1
(17) Cc1ccc(Nc2nc(-c3ccccc3)cs2)nc1
(18) c1ccc(Oc2cc(-n3cncn3)ncn2)cc1
assay / compound	13	14	15	16	17	18
D2 potentiator	-14	-11	-9	-8	-3	2
CtBP-E1A inh	-8	10	-4	-4	/	-2
TRPV1 PAM	12	-8	9	/	-15	-13
Six1-Eya2 blk	2	0	1	-8	-1	-12
PINK1 modulator	-3.2%	0.5%	-0.3%	0.7%	1.4%	-0.9%
D2 ag	-0.4	1.0	-0.9	-2.5	-3.2	-0.7
Sfp PPTase inh	-3%	23%	18%	-4%	-18%	4%

(19) CCOC(=O)C(=CNc1ccc(C#N)cc1)C(=O)OCC
(20) C=C(C)CNC(=S)N1CCN(C(c2ccccc2)c2ccccc2)CC1
(21) O=C(COC(=O)Cn1cnc2ccccc21)NCCc1ccccc1
(22) CCC(=O)Nc1ccc2c(c1)nc(CN1CCCCC1)n2C
(23) NC(=O)c1ccccc1N=Cc1ccc2ccccc2c1
(24) Cc1cc(C)nc(N/N=C/c2sccc2C)n1
assay / compound	19	20	21	22	23	24
D2 potentiator	3	-37	-11	-40	-3	-4
CtBP-E1A inh	-7	-15	8	-14	-3	2
TRPV1 PAM	8	-7	3	-9	-2	-1
Six1-Eya2 blk	-1	8	7	-5	-1	5
PINK1 modulator	0.2%	-1.9%	-2.1%	0.7%	13%	0.3%
D2 ag	-0.8	-3.1	-2.4	-1.8	-1.6	-4.2
Sfp PPTase inh	6%	-2%	5%	1%	4%	7%

Full records, quoted from the list. Order of screens: D2 potentiator, CtBP-E1A inh, TRPV1 PAM, Six1-Eya2 blk, PINK1 modulator, D2 ag, Sfp PPTase inh
Record of Cc1ncc([N+](=O)[O-])n1CCOC(=O)NC(Nc1ccc(F)cc1)C(Cl)(Cl)Cl (stereo unspecified) : -9, -4, 9, 1, -0.3%, -0.9, 18%
Record of NC(=O)c1ccccc1N=Cc1ccc2ccccc2c1 : -3, -3, -2, -1, 13%, -1.6, 4%
Record of O=C(COC(=O)Cn1cnc2ccccc21)NCCc1ccccc1 : -11, 8, 3, 7, -2.1%, -2.4, 5%
Record of NC(=O)C1=C[C@H](c2ccc(Br)cc2)C[C@H](OCc2ccc(CO)cc2)O1 : -1, 3, -14, 0, 0.6%, -0.8, 0%

Further entries follow.
(25) Cc1ccccc1NC(=O)Cc1nc(COC(=O)c2nccnc2N)cs1
(26) O=C(Nc1ccc(S(=O)(=O)N2CCOCC2)cc1)c1ccccc1Br
(27) O=C(NCCCn1ccnc1)c1cn(-c2ccccc2)nc1-c1ccccc1
(28) C=CCOC(=O)C1=C(C)NC(SCC(=O)N(CC)CC)=C(C#N)C1c1ccco1 (stereo unspecified)
(29) N#C/C(=C/c1ccc(OC(=O)c2ccc(Br)s2)cc1)c1nc2ccccc2[nH]1
(30) Cc1cc(C)nc(N/N=C/c2ccc3c(c2)OCCO3)n1
assay / compound	25	26	27	28	29	30
D2 potentiator	-8	-18	-31	-9&-10	-4	-4
CtBP-E1A inh	4	/	14	7&-2	9	-2
TRPV1 PAM	/	-34	16	1	/	-2
Six1-Eya2 blk	-7	-2	-4	0&4	?	0
PINK1 modulator	1.6%	-0.8%	/	0.3%&7.5%	3.0%	-1.9%
D2 ag	-0.8	-5.5	1.4	-1.1&4.5	-1.0	-0.9
Sfp PPTase inh	/	-1%	5%	3%	/	11%

(31) COC(=O)c1cc(C(=O)OC)n(Cc2ccc(C)cc2)c1C
(32) COc1ccc(-c2nn3cnnc3s2)cc1OC
(33) CN(CCC1CCCCO1)C(=O)c1cc(COc2ccc(F)cc2F)on1 (stereo unspecified)
(34) Cc1cc(C)c(NC(=O)CN2C(=O)NC3(CCc4ccccc43)C2=O)c(Cl)c1 (stereo unspecified)
(35) CC(=O)N1CCCN(C(=O)c2cc(COc3c(F)cccc3F)on2)CC1
(36) COC(=O)Cc1c(C)nc2nc(Cc3ccccc3)[nH]n2c1=O
assay / compound	31	32	33	34	35	36
D2 potentiator	4	-6	-11	-2	-10	28
CtBP-E1A inh	13	-2	0	/	8	24
TRPV1 PAM	13	2	-17	/	7	3
Six1-Eya2 blk	-2	0	12	4	7	7
PINK1 modulator	0.7%	-2.3%[38.3 µM]	-2.0%	6.7%	0.2%	0.1%
D2 ag	-4.8	-0.3	-2.5	8.2	-0.6	0.3
Sfp PPTase inh	6%	21%	-6%	/	27%	15%

(37) Cc1ccccc1N(C(=O)CNC(=O)c1cccs1)C(C(=O)NC1CCCC1)c1ccncc1 (stereo unspecified)
(38) COC(=O)c1ccc(CSc2nc3c(cnn3-c3ccc(F)cc3)c(=O)[nH]2)o1
(39) CC(Oc1ccccc1Cl)C(=O)Nc1ccc(S(=O)(=O)N2CCN(C)CC2)cc1 (stereo unspecified)
(40) COc1ccc(/C=C/C(=O)NCCCN2CCOCC2)cc1
(41) O=C(COC(=O)c1ccc(Cl)nc1)NCc1ccc2c(c1)OCO2
(42) COc1cc(/C=N/NC(N)=O)ccc1OCC(=O)Nc1ccc(C)c(C)c1
assay / compound	37	38	39	40	41	42
D2 potentiator	-2	-10	1	-7	-6	22
CtBP-E1A inh	8	2	3	5	14	-12
TRPV1 PAM	-3	3	/	-3	2	23
Six1-Eya2 blk	11	-3	19	-2	2	3
PINK1 modulator	-0.6%	-3.3%[38.3 µM]	2.5%	2.1%	-1.8%	14%
D2 ag	-0.6	1.1	-1.7	-1.6	1.7	-2.2
Sfp PPTase inh	9%	-1%	/	12%	1%	-6%

(43) CCC(Sc1nc(C)cc(C)n1)C(=O)NC1=NN=C(c2ccc(C)cc2)CS1 (stereo unspecified)
(44) CN(C(=O)c1cc([N+](=O)[O-])ccc1NCc1cccnc1)c1ccccc1
(45) Cc1c(-c2ccccc2)oc2c(C(=O)OCC(=O)Nc3ccc(C(N)=O)cc3)cccc2c1=O
(46) CSCCOC(=O)COc1ccc(/C=N/NC(=O)c2nn(C)cc2Cl)cc1
(47) O=C(NCCC1=CCCCC1)c1cnccn1
(48) Cc1ccc(C(=O)Nc2cccc([N+](=O)[O-])c2)cc1S(=O)(=O)Nc1cccc(C(=O)O)c1
assay / compound	43	44	45	46	47	48
D2 potentiator	?	-7	-10	0	-2	-2
CtBP-E1A inh	-17	/	/	-3	-6	/
TRPV1 PAM	0	-9	-1	-10	-28	13
Six1-Eya2 blk	-13	-3	-7	-20	1	?
PINK1 modulator	14µM*	0.3%	-0.8%	-0.6%	-0.6%	0.1%
D2 ag	3.6	3.0	-1.4	-1.8	-3.3	2.0
Sfp PPTase inh	?	8%	-1%	4%	2%	2%

(49) CCC(Sc1ncccc1C(=O)Oc1cccc([N+](=O)[O-])c1)C(=O)Nc1ccccc1OC (stereo unspecified)
(50) COc1ccc2cc(Br)ccc2c1CC(=O)N(C)C
(51) Cc1ccsc1C(=O)NNC(=S)NCC(C)C
(52) CCOC(=O)C1(Cc2ccccc2)CCCN(CCO)C1 (stereo unspecified)
(53) Cc1ccc(Nc2nnc(-c3ccc4c(c3)OCO4)o2)c(C)c1
(54) CC(NC(=O)c1ccc2c(c1)OCO2)c1ccccc1 (stereo unspecified)
assay / compound	49	50	51	52	53	54
D2 potentiator	-5	-13	-10	4	14	-8
CtBP-E1A inh	-5	-1	-3	-21	/	-2
TRPV1 PAM	6	9	7	0	-7	-9
Six1-Eya2 blk	-14	-4	-1	-1	-1	-3
PINK1 modulator	-0.5%	1.3%	1.5%[38.3 µM]	-0.2%	0.5%	1.4%
D2 ag	-0.9	-0.7	-3.6	-1.1	-5.3	-2.9
Sfp PPTase inh	6%	19%	14%	18%	50µM*	3%

Source: PubChem BioAssay
